High-throughput results as filed in PubChem.
VDR inhibitor: blocks the human vitamin D receptor; P11473; VDR-SRC2-3 peptide fluorescence polarization, 2 h; Potency, µM, inactives show max response, negative = inhibition, most hits filed as inhibitors; 0.93% of 400,000 active; AID 504847; active = well fitted inhibition curve with a large enough effect; inconclusive = small, poorly fitted or top-dose-only effect, or another doubt; inactive = no such curve, though single readings can be large or run the other way; note: series mostly up to about 120 µM
Target sequence (P11473 whole entry, looked up): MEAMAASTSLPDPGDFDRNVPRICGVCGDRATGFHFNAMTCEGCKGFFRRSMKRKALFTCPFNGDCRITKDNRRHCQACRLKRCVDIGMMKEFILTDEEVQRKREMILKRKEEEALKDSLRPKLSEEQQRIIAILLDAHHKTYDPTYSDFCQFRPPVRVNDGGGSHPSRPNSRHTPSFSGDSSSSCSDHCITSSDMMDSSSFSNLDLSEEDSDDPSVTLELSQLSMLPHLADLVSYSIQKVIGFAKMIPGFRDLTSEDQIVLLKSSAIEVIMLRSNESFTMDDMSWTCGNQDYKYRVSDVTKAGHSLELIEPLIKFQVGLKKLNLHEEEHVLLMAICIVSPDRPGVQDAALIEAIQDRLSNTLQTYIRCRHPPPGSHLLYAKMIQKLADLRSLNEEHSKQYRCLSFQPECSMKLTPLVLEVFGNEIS
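Measured by FP: displacement of SRC2-3 coactivator peptide from VDR by library compounds, following a two-hour ambient incubation.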
The depositor's hits bear a star; & = joins results of further samples; [ ] = dose if it differs, or a comment. % is set by controls: 0 for no effect and ±100 for the full control effect; potency is the fitted concentration of half-maximal effect. Not all compounds are listed; count on the stated rates, not on these rows.

Screening O=C1C(Cl)=C(N2CCOCC2)C(=O)N1c1ccc(Br)cc1 returned VDR inhibitor inconclusive.
For COc1cc(Nc2c3c(nc4ccccc24)CCC3)cc(OC)c1OC the results were VDR inhibitor -18%.
CC(=O)Nc1cccc(C(=O)Nc2cccc(S(=O)(=O)NCc3ccco3)c2)c1 was read as VDR inhibitor 83%[activator].
CC(=O)c1cccc(Nc2cc(C)nc3nc(-c4ccccc4C)nn23)c1 was read as VDR inhibitor 5%.
For COc1ccc(CNC(=O)COc2ccc(S(=O)(=O)N3CCCCC3)cc2Cl)cc1 the results were VDR inhibitor -8%.
For COc1cc(C2N(c3ccccn3)C(=O)C3CCCN32)cc(OC)c1OC (stereo not given) the results were VDR inhibitor -12%.
`CCOC(=O)c1nc2cc3n(c(C)c-2c1C)C(C)C(CC)=C3C` (stereo not given) gave VDR inhibitor -4%.
COc1ccc(CNC(=O)C2CCCN2C)cc1OC (stereo not given) was read as VDR inhibitor -7%.
Screening O=C(COc1ccccc1Cl)Nc1ccc2c(c1)C(=O)NC2=O returned VDR inhibitor 25%.
COCC(=O)O[C@]1(CCN(C)CCCc2nc3ccccc3[nH]2)CCc2cc(F)ccc2[C@@H]1C(C)C was read as VDR inhibitor 0%&-8%&-1%&-10%.
CCOC(=O)CSc1nnc(NC(=O)c2cccc([N+](=O)[O-])c2C)s1 was read as VDR inhibitor -16%.
`CCOC(=O)c1cnc2ccc(C(=O)OC)cc2c1Nc1ccc(N2CCOCC2)cc1` gave VDR inhibitor -2%.
O=C(CCc1ccccc1)NNC(=O)c1ccc(Br)cc1 was read as VDR inhibitor -2%.
Screening CN(C(=O)CSc1nc(-c2ccccc2)cn1N)C(c1ccccc1)c1ccccc1 returned VDR inhibitor -14%.
For N#Cc1ccccc1Oc1ccc(S(=O)(=O)N2CCCCC2)cn1 the results were VDR inhibitor -13%.
CCN(CC)c1ccc(C(=O)N2CCN(Cc3ccccc3)CC2)cc1 was read as VDR inhibitor -5%.
Screening COc1ccc([C@H]2CC(=O)C=C(c3cccc(CO)c3)C2)cc1 returned VDR inhibitor 13%.
For Cc1cccc(-c2nc(CN3CCCC(C(=O)NCCc4ccc(Cl)cc4)C3)c(C)o2)c1 (stereo not given) the results were VDR inhibitor -10%.
For Nc1ccc(S(=O)(=O)NCC(=O)OC2CCOC2=O)cc1[N+](=O)[O-] (stereo not given) the results were VDR inhibitor -16%.
For Cc1nn(CC(=O)Nc2ccc3c(c2)nc2n3CCN(C3CCCCC3)C2)c(=O)c2ccccc12 the results were VDR inhibitor -5%.

3 neighbouring compounds already listed, quoted:
Screening O=C1C(Cl)=C(N2CCOCC2)C(=O)N1c1ccc(Br)cc1 returned VDR inhibitor inconclusive.
For COc1cc(Nc2c3c(nc4ccccc24)CCC3)cc(OC)c1OC the results were VDR inhibitor -18%.
CC(=O)Nc1cccc(C(=O)Nc2cccc(S(=O)(=O)NCc3ccco3)c2)c1 was read as VDR inhibitor 83%[activator].

More results
For CC(=O)c1cn(CC(=O)Nc2ccccc2C)c2ccccc12 the results were VDR inhibitor -5%.
`O=C(CC(c1ccccc1)c1ccccc1O)N1CCCC1` (stereo not given) gave VDR inhibitor -2%.
Screening COc1ccc2oc(=O)c(-c3csc(Nc4cccc(O)c4)n3)cc2c1 returned VDR inhibitor 1%.
CCCCC1=CC2=C(OC(C)=O)C(=O)C(C)(OC(=O)CCC(=O)OC)C(=O)C2=CO1 (stereo not given) was read as VDR inhibitor 5%.
COc1ccc(NC(=O)c2cc(-c3cc(C)cc(C)c3O)n[nH]2)cc1Cl was read as VDR inhibitor 6%.
Screening C[C@@H](NC(=O)C1(c2ccccc2)CCN(C(=O)OC(C)(C)C)CC1)C(=O)N[C@@H](C(=O)O)c1ccccc1 returned VDR inhibitor -24%.
For COCc1cc(C)nc(SCC(=O)Nc2ccc3c(c2)n(C)c(=O)n3C)c1C#N the results were VDR inhibitor -6%.
`NCCCCNCCCN` gave VDR inhibitor 1%&1%&-16%.
Screening C[C@]12CCC(=O)CC1=CCC1C3CC=C(C#N)[C@@]3(C)CC[C@@]12O (stereo not given in full) returned VDR inhibitor -20%.
For COc1ccc([N+](=O)[O-])cc1C1NN=C(c2ccccc2O)S1 (stereo not given) the results were VDR inhibitor 3%.
`CCCNC(=S)N1CCC(C(=O)c2ccc(F)cc2)CC1` gave VDR inhibitor 128%[activator].
For O=C(Cc1c(O)c2ccccc2[nH]c1=O)NC1CCCCCCC1 the results were VDR inhibitor -15%.
O=C1c2cccnc2C(Nc2ccccc2)N1Cc1ccco1 (stereo not given) was read as VDR inhibitor -13%.
Cc1ccc(S(=O)(=O)NCCN=C(CN2CCCC2)NS(=O)(=O)c2ccc(C)cc2)cc1 was read as VDR inhibitor -7%.
O=C(/C=C/c1ccc(F)cc1)NC(=S)N1CCOCC1 was read as VDR inhibitor -19%.
Cc1cc(O)c(NC(=O)c2ccco2)cc1C was read as VDR inhibitor 1%.
`Cc1cn2c(=O)c(S(=O)(=O)NCCc3ccccc3)c(C)nc2s1` gave VDR inhibitor 8%.
Cc1cc(O)c(CN(C)C)c2c1C(=O)/C(=C/c1ccco1)O2 was read as VDR inhibitor -22%.
Screening CC1Oc2ccccc2C=C1/C=N/NC(=O)c1ccncc1 (stereo not given) returned VDR inhibitor -10%.
Screening COc1cc(=O)n(C)c2cc(N(C)C)ccc12 returned VDR inhibitor 17%.
CCN1CCCC1CNS(=O)(=O)c1cccc(C(F)(F)F)c1 (stereo not given) was read as VDR inhibitor -2%.
For CC1CCCC(C)N1C(=C(Cl)Cl)C(=C1SCCS1)[N+](=O)[O-] (stereo not given) the results were VDR inhibitor 16%.
For COc1ccc(Nc2nnc(SC(C)C(=O)NC3CC3)s2)cc1 (stereo not given) the results were VDR inhibitor -22%.
COc1ccc(-c2nnnn2-c2ccc(F)cc2F)cc1 was read as VDR inhibitor -3%.
Cc1cc(C(=O)N/N=C/c2ccccc2[N+](=O)[O-])c(C)o1 was read as VDR inhibitor 13%.
For CSc1nc2c(c(=O)n1-c1ccccc1)SCC2 the results were VDR inhibitor 3%.
For COc1ccccc1N(CC(=O)N1CCCCCC1)S(C)(=O)=O the results were VDR inhibitor -6%.
O=C(Nc1ccccc1)c1ccc(CN2CCc3ccccc3C2)cc1 was read as VDR inhibitor -1%.
C[C@@H](NC(=O)c1nc[nH]c1C(=O)N[C@@H](Cc1ccccc1)C(=O)OC(C)(C)C)c1ccccc1 was read as VDR inhibitor -2%.
`CN1N=C(C(C)(C)C)CC1=O` gave VDR inhibitor 5%.
`CCc1ccccc1NC(=O)c1ccc(-c2csc(C)n2)cc1` gave VDR inhibitor 8%.
For O=C(CCc1ccc(CCC(=O)c2cccs2)s1)c1cccs1 the results were VDR inhibitor 13%.
C=CCN(C(=O)c1csnn1)C(C(=O)NC1CCCCC1)c1ccccc1F (stereo not given) was read as VDR inhibitor 1%.
`O=S(=O)(c1ccccc1)N(CC(O)COc1ccccc1)c1ccccc1` (stereo not given) gave VDR inhibitor -3%.
Screening CCOc1ccc(C(=O)N2CCN(Cc3cc(=O)n4nc(-c5ccccc5Cl)sc4n3)CC2)cc1 returned VDR inhibitor -7%.
CC1(C2CC2)NC(=O)N(CC(=O)N2CCN(c3ccc(F)cc3)CC2)C1=O (stereo not given) was read as VDR inhibitor 4%.
Screening Cc1ccc(CNC(=O)CCc2c(C)nc3nc(C)nn3c2C)cc1 returned VDR inhibitor 0%.
Screening O=C1N[C@@H](Cc2ccccc2)C(=O)N2[C@@H]3N(S(=O)(=O)c4ccccc4)c4ccccc4[C@]3(Br)C[C@@H]12 returned VDR inhibitor -14%.
`CCOC(=O)/C(C#N)=C/c1cc2ccc(C)cc2nc1Cl` gave VDR inhibitor -11%.
`Cc1ccc(S(=O)(=O)N2CCOCC2)cc1NC(=O)COC(=O)c1ccccc1OCc1c(C)noc1C` gave VDR inhibitor -2%.
For COc1ccc(/C(N)=N/OC(=O)CSc2ccccc2)cc1 the results were VDR inhibitor 8%.
O=C(COc1ccc(Cl)cc1)OCC(=O)N1CCCc2ccccc21 was read as VDR inhibitor 1%.
`Cc1ccn2c(Nc3ccccc3)c(-c3c[nH]c4ccccc34)nc2c1` gave VDR inhibitor -20%.
`C=C1CCC[C@]2(C)C[C@H]3OC(=O)C(CNCC(OC)OC)[C@H]3CC12` (stereo not given in full) gave VDR inhibitor 30%[activator].
For Cc1noc(C)c1NC(=O)Nc1ccc2c(c1)C(=O)N([C@H](C)CO)C[C@H](C)[C@@H](CN(C)C(=O)NC(C)C)O2 the results were VDR inhibitor 3%.
`O=[N+]([O-])c1ccccc1OC/C(=N\O)c1ccccc1` gave VDR inhibitor 8%.
Screening CS(=O)(=O)N(CC(=O)N1CCN(Cc2ccc3c(c2)OCO3)CC1)c1ccc2c(c1)OCO2 returned VDR inhibitor 3%.
`Cc1c(NC(=O)c2ccc(-c3ccc(F)cc3)o2)cccc1-c1nc2ncccc2o1` gave VDR inhibitor -21%.
For Fc1ccc(-c2noc(-c3ccc4c(c3)CCO4)n2)cc1 the results were VDR inhibitor -9%.
`COc1ccc(-c2cc(CNS(=O)(=O)c3ccc(NC(C)=O)cc3)on2)cc1` gave VDR inhibitor -21%.
`CCC1(C)Cc2sc3c(=O)[nH]c(=S)[nH]c3c2CO1` (stereo not given) gave VDR inhibitor -16%.
`C=CCSc1nc(N)cc(=O)[nH]1` gave VDR inhibitor 5%.
O=C(O)CCNC(=O)c1cncc(Br)c1 was read as VDR inhibitor -24%.
`O=C(NC1CCCC1)c1cc(-c2ccccc2)on1` gave VDR inhibitor 5%.
`COc1ccc(Cl)cc1S(=O)(=O)N1CCC(c2ccncc2)CC1` gave VDR inhibitor 5%.
O=C(CNS(=O)(=O)c1ccccc1)Nc1cccc([N+](=O)[O-])c1 was read as VDR inhibitor inconclusive.
`CCOC(=O)c1cnn(CCOC(=O)C2CC2)c1NC(=O)C1CC1` gave VDR inhibitor -1%.
Screening O=C(N/N=C/c1ccncc1)c1cc([N+](=O)[O-])cc([N+](=O)[O-])c1 returned VDR inhibitor 4%.
`CCC(O)(C(=O)Nc1ccccc1C(F)(F)F)c1ccccc1OC` (stereo not given) gave VDR inhibitor -1%.
Cc1cccc(NC(=O)CCc2nnc3ccc(N4CCC(C)CC4)nn23)n1 was read as VDR inhibitor 23%.
For O=C(Nc1nc2ccccc2n1CCN1CCCC1)C1CCCCC1 the results were VDR inhibitor -3%.
N#Cc1cc([N+](=O)[O-])c(-n2nnc3ccccc32)c([N+](=O)[O-])c1 was read as VDR inhibitor inconclusive.
Screening COc1ccc(C(=O)Nc2c(N)nc(SCC(=O)Nc3ccc(C(C)=O)cc3)[nH]c2=O)cc1 returned VDR inhibitor -22%.
COc1cc2nc(CN(C)Cc3ccc(C(C)(C)C)cc3)[nH]c(=O)c2cc1OC was read as VDR inhibitor -12%.
For CC(=O)c1ccc(N2C(=O)N(Cc3ccc(F)cc3)c3ccccc3S2(=O)=O)cc1 the results were VDR inhibitor 6%.
Cc1ccc(NC(=O)N(Cc2ccco2)C(C)c2ccco2)cc1C (stereo not given) was read as VDR inhibitor 10%.
Screening CCOC(=O)c1c(C)[nH]c(=S)c(C#N)c1-c1ccc(Cl)cc1 returned VDR inhibitor inconclusive.
`CCN1CCN(C(=O)c2ccc(N3CC4CC(C3)c3cccc(=O)n3C4)c([N+](=O)[O-])c2)CC1` (stereo not given) gave VDR inhibitor -26%.
For O=C(Nc1nnc(-c2ccc(Br)cc2)o1)c1ccco1 the results were VDR inhibitor -10%.
`COc1cc(/C(C)=N/NC(=O)CSc2nnc(C)s2)ccc1O` gave VDR inhibitor 9%.
CCOc1ccc(CCNC(=O)c2cnc3sc(N4CCOCC4)nn3c2=O)cc1 was read as VDR inhibitor 7%.
`O=C(O)COc1ccc2c(c1)CCCC2` gave VDR inhibitor 1%.
Screening Cc1ccc2c(COC(=O)c3ccccc3OC(F)F)cc(=O)oc2c1 returned VDR inhibitor 2%.
`COc1cc(/C=C2\C(=N)N3N=CSC3=NC2=O)cc(Br)c1OC(=O)c1ccco1` gave VDR inhibitor inconclusive.
For O=C(CCn1c(=O)oc2ccccc21)N1CCCCCC1 the results were VDR inhibitor 9%.
`CC(Oc1cc2oc(=O)c3c(c2cc1Cl)CCC3)C(=O)NCc1ccncc1` (stereo not given) gave VDR inhibitor -1%.
COc1ccccc1N1CCN(C(=O)C2CCN(S(=O)(=O)c3ccc(C)cc3)CC2)CC1 was read as VDR inhibitor 10%.
CCCCN1C=CC(=C2C(=O)c3ccccc3C2=O)C=C1 was read as VDR inhibitor -6%.
`CC1Cc2cc(/C=C3/SC(=S)NC3=O)ccc2O1` (stereo not given) gave VDR inhibitor 87%[activator].

In the list so far, 10 contain two or more sulfur atoms:
CCOC(=O)CSc1nnc(NC(=O)c2cccc([N+](=O)[O-])c2C)s1 was read as VDR inhibitor -16%.
Cc1ccc(S(=O)(=O)NCCN=C(CN2CCCC2)NS(=O)(=O)c2ccc(C)cc2)cc1 was read as VDR inhibitor -7%.
`Cc1cn2c(=O)c(S(=O)(=O)NCCc3ccccc3)c(C)nc2s1` gave VDR inhibitor 8%.
For CC1CCCC(C)N1C(=C(Cl)Cl)C(=C1SCCS1)[N+](=O)[O-] (stereo not given) the results were VDR inhibitor 16%.
For COc1ccc(Nc2nnc(SC(C)C(=O)NC3CC3)s2)cc1 (stereo not given) the results were VDR inhibitor -22%.
For CSc1nc2c(c(=O)n1-c1ccccc1)SCC2 the results were VDR inhibitor 3%.
For O=C(CCc1ccc(CCC(=O)c2cccs2)s1)c1cccs1 the results were VDR inhibitor 13%.
`CCC1(C)Cc2sc3c(=O)[nH]c(=S)[nH]c3c2CO1` (stereo not given) gave VDR inhibitor -16%.
`COc1cc(/C(C)=N/NC(=O)CSc2nnc(C)s2)ccc1O` gave VDR inhibitor 9%.
`CC1Cc2cc(/C=C3/SC(=S)NC3=O)ccc2O1` (stereo not given) gave VDR inhibitor 87%[activator].
